B2AR ag – activates human beta-2 adrenergic receptor causing internalization. P07550. Am2.2-beta2AR cells, FAP receptor internalization, flow cytometry; reference of the scale not given here. 340,000 tested, 0.43% active. AID 504454. response, % (test concentration not listed);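 active = response above a set limit, near 3 SD of response in nonfluorescent compounds, cut at about 42% in these data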;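 note: stock transfer was 100 nL into about 11 µL; a reference agonist was the positive control; negative values mostly stem from fluorescent compounds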
Target sequence (P07550 whole entry, looked up): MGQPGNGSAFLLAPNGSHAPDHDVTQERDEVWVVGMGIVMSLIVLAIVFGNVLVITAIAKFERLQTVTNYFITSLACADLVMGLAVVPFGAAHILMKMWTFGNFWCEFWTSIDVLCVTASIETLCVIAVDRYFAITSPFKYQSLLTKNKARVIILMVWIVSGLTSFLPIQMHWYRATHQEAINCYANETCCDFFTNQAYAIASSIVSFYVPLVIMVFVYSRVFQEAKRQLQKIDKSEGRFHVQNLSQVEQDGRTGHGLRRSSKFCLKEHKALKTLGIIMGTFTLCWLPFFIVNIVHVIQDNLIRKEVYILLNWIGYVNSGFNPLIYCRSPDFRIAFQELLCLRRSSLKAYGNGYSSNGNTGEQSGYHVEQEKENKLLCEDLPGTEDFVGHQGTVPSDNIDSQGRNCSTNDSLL
UCH37 DUB inh – inhibitors of human deubiquitinating enzyme UCH37; purified proteasome/UCH37, Ub-AMC cleavage fluorescence; 330,000 tested, 0.33% active; AID 588478; inhibition, % (concentration not given with the values);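 active = mean of two replicates above 20%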;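 note: 0% = compound-free wells with enzyme and 100% = wells lacking proteasome; stock transfer was 100 nL into about 20 µL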
Target sequence (Q9Y5K5 whole entry, looked up): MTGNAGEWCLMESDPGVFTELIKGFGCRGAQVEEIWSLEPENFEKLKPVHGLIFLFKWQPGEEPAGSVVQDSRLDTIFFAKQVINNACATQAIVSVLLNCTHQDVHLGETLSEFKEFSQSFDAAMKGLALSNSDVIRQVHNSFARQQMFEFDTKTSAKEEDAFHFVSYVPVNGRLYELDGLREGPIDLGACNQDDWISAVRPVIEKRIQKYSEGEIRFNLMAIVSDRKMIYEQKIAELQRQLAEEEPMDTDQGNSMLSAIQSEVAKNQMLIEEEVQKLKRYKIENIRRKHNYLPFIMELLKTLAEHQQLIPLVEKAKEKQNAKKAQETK
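Signal – fluorescence, ex 355 nm, em 460 nm · System – Proteasome-bound UCH37 · Input – 0.15 nM proteasome as dispensed · Timing – 30 min preincubation with enzyme, 25 min cleavage at room temperature · Read-out basis – percent inhibition of cleavage signal versus uninhibited and no-proteasome wells · Medium – Tris-HCl pH 7.4 with ATP-MgCl2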
Ecoli growth – blocks Escherichia coli growth. OD600 absorbance (test concentration not listed). OD600, 23 h; active compounds read low. 330,000 tested, 0.21% active;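 active = OD600 absorbance below the run mean of sample wells minus 3.6 SD, in any replicate, cut at about 0.56 in these data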;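 note: stock transfer was 300 nL into about 60 µL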
HNF4A DNA FP – change in binding of human HNF4 alpha to DNA; HNF4a-FITC DNA binding, fluorescence polarization, 1 h; activity change, % at 10 µM; 360,000 tested, 0.3% active; in the data active = activity change above about 30%, passing the limit was not always enough;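 note: controls were the assay level and a saturating level of protein; the project sought stronger binding though the title names inhibitors; some compounds called inactive have numbers as strong as hits; positive values seem to mean higher polarization but the record does not say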
FGF22 binding – FGF22 (human) thermal shift binding; 340,000 tested, 1.5% active; recombinant FGF22 thermal shift, SYPRO orange fluorescence; percent of sucrose octasulfate shift, DMSO zero; calls only at 9.99 µM;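 active = melting point raised past a set limit in the mean and every replicate; inconclusive = no clear call; three in four hits are not shown here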
ALR H2O2 inh – inhibitors of human sulfhydryl oxidase ALR. P55789. purified ALR, DTT oxidation, H2O2 HRP-luminol luminescence. inhibition, % (concentration not given with the values). 290,000 tested, 3.8% active. AID 485317;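 active = mean and each replicate at 75% or more; inconclusive = only one of the two met; inactive = neither met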;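 note: stock transfer was 7.5 nL into about 7.5 µL; 0% = neutral wells and 100% = wells with inactivated enzyme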
Target sequence (P55789 whole entry, looked up): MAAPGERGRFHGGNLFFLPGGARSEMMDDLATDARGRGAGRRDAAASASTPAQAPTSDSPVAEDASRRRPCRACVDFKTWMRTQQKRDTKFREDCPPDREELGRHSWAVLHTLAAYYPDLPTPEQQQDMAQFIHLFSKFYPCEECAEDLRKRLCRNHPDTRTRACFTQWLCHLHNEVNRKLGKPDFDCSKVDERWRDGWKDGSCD
LANA-H2A inh – blocks KSHV LANA binding to histone H2A/H2B. Q9QR71. cell-free LANA-H2A/H2B peptide, fluorescence polarization. inhibition, % (no concentration beside the values). 320,000 tested, 0.6% active; in the data active = inhibition mostly above about 10%, no sharp cut-off; inactive = mostly below about 6.7%;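 note: stock transfer was 7.5 nL into about 10 µL; 0% = median of vehicle wells and 100% = median of positive control wells; one replicate is shown; the record names a cut of 25% in any replicate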
* = called active by the depositor. Not all compounds are listed; the hit share may differ from the screen's.

Clc1ccc(Nc2nc3cccnc3s2)cc1 was read as B2AR ag 1, HNF4A DNA FP 2.7, FGF22 binding inactive and LANA-H2A inh 1.6.
For O=C(Nc1nncs1)c1ccc2c(c1)OCO2 the results were B2AR ag -1, UCH37 DUB inh 1.5, Ecoli growth 0.69, HNF4A DNA FP -0.9, FGF22 binding inactive, ALR H2O2 inh -1 and LANA-H2A inh -4.8.
O=C(O)/C(=C\c1ccc(Br)cc1)c1ccc(S(=O)(=O)N2CCCCC2)s1 was read as B2AR ag -6, UCH37 DUB inh 2.6, Ecoli growth 0.66, HNF4A DNA FP -5.9, ALR H2O2 inh 25 and LANA-H2A inh 4.1.
CCCc1nnc(-c2cc(OC)c(OC)c(OC)c2)o1 was read as B2AR ag -3, UCH37 DUB inh 1.3, Ecoli growth 0.69, HNF4A DNA FP -1.1, FGF22 binding inactive, ALR H2O2 inh -5 and LANA-H2A inh 0.8.
For Cn1c(=O)[nH]c(=O)c2c1ncn2CCN1CCOCC1 the results were B2AR ag 2, UCH37 DUB inh 2.4, Ecoli growth 0.73, HNF4A DNA FP 4.9, ALR H2O2 inh 4 and LANA-H2A inh -3.8.
`Cc1ccc(S(=O)(=O)NCC(=O)NCC(=O)OC(C(=O)NC(N)=O)C(C)C)cc1C` (centres undefined) gave B2AR ag -3, UCH37 DUB inh 0.8, Ecoli growth 0.72, HNF4A DNA FP -0.6, FGF22 binding inactive, ALR H2O2 inh -3 and LANA-H2A inh 3.4.
Screening COCCn1c(C)cc(C(=O)COC(=O)c2cncc(Br)c2)c1C returned B2AR ag 5, UCH37 DUB inh -0.1, Ecoli growth 0.66, HNF4A DNA FP -1.2, ALR H2O2 inh inconclusive and LANA-H2A inh -4.1.
For CCOc1ccc(Nc2nnc(SCc3nc4ccccc4c(=O)[nH]3)s2)cc1 the results were B2AR ag -3, UCH37 DUB inh 4.1, Ecoli growth 0.73, HNF4A DNA FP 0.5, ALR H2O2 inh -3 and LANA-H2A inh 3.8.
For O=C(CC1(C(F)(F)F)OCCO1)Nc1ccc2c(c1)OCO2 the results were B2AR ag -12, UCH37 DUB inh 1.3, Ecoli growth 0.69, HNF4A DNA FP -0.6, ALR H2O2 inh -4 and LANA-H2A inh -2.8.
CCCNC(=O)c1ccc(OC)cc1OC was read as B2AR ag 1, UCH37 DUB inh 3.9, Ecoli growth 0.69, HNF4A DNA FP 2.5, ALR H2O2 inh -1 and LANA-H2A inh -3.2.
NC(=O)c1sc2nc(-c3cccnc3)ccc2c1N was read as B2AR ag 7, UCH37 DUB inh 5.5, Ecoli growth 0.59, HNF4A DNA FP 4.7, FGF22 binding inactive, ALR H2O2 inh 8 and LANA-H2A inh 3.8.
`CN(C)S(=O)(=O)N1CCN(c2ccc([N+](=O)[O-])cc2)CC1` gave B2AR ag 7, UCH37 DUB inh 8.2, Ecoli growth 0.64, HNF4A DNA FP -0.4, FGF22 binding inactive, ALR H2O2 inh 67 and LANA-H2A inh -4.9.
Screening Cc1cc(=O)c(C(=O)Nc2cccc(N3CCCC3=O)c2)nn1-c1ccccc1F returned B2AR ag -3, UCH37 DUB inh 4.4, Ecoli growth 0.7, HNF4A DNA FP 0.9, FGF22 binding inactive and ALR H2O2 inh -3.
`O=C1OC(c2ccc3c(c2)OCO3)N(C(=O)c2ccc(Cl)c(Cl)c2)c2ccccc21` (centres undefined) gave B2AR ag 8, UCH37 DUB inh 0.2, Ecoli growth 0.77, HNF4A DNA FP -2.7, ALR H2O2 inh -9 and LANA-H2A inh 3.5.
COC(=O)COc1cc(C)cc2oc(=O)c(CC(=O)OC)c(C)c12 was read as B2AR ag 10, UCH37 DUB inh -33, Ecoli growth 0.72, HNF4A DNA FP -0.1, ALR H2O2 inh -1 and LANA-H2A inh 0.9.
CCOC(=O)C1CCN(S(=O)(=O)c2ccccc2[N+](=O)[O-])CC1 was read as B2AR ag 10, UCH37 DUB inh 1.4, Ecoli growth 0.66, HNF4A DNA FP 0.4, FGF22 binding inactive, ALR H2O2 inh -12 and LANA-H2A inh 6.0.
For COc1ccc(C(=O)Nc2ccccc2N2CCOCC2)cc1[N+](=O)[O-] the results were B2AR ag -10, UCH37 DUB inh 6.6, Ecoli growth 0.7, HNF4A DNA FP -2.2, ALR H2O2 inh -3 and LANA-H2A inh 4.0.
O=C(CSc1nnc(Nc2ccccc2F)s1)c1cc2ccccc2o1 was read as B2AR ag 13, UCH37 DUB inh 2.9, Ecoli growth 0.65, HNF4A DNA FP 3.5, ALR H2O2 inh 44 and LANA-H2A inh -2.9.
`c1ccc(CCc2ccccc2-c2nc(-c3ccccn3)no2)cc1` gave B2AR ag 0, UCH37 DUB inh -0.5, Ecoli growth 0.58, HNF4A DNA FP -2.6, ALR H2O2 inh -2 and LANA-H2A inh -5.4.
COc1ccccc1N1CCN(CCCC(=O)c2ccc(F)cc2)CC1 was read as B2AR ag -6, UCH37 DUB inh 1.5, Ecoli growth 0.67, HNF4A DNA FP 5.3, FGF22 binding inactive, ALR H2O2 inh 64 and LANA-H2A inh -4.6.
Screening COc1ccc(C(C#N)N2N=C(C)CC2(C)C)cc1OC (centres undefined) returned B2AR ag -2, UCH37 DUB inh 4.0, Ecoli growth 0.66, HNF4A DNA FP -5.0, ALR H2O2 inh -16 and LANA-H2A inh -14.
COc1ccc(NC(=O)C2CCC(CNc3c(N4CCCCC4)c(=O)c3=O)CC2)c(OC)c1 (centres undefined) was read as B2AR ag -1, UCH37 DUB inh 2.1, Ecoli growth 0.68, HNF4A DNA FP 4.4, FGF22 binding inactive, ALR H2O2 inh -10 and LANA-H2A inh 2.5.
`O=C(Cn1ncc2c([nH]c3ccccc32)c1=O)N1CCOCC1` gave B2AR ag -2, UCH37 DUB inh -2.3, Ecoli growth 0.71, HNF4A DNA FP 3.8, FGF22 binding inactive, ALR H2O2 inh -2 and LANA-H2A inh 0.6.
`CCN(CC)C(=O)c1cnn(-c2ccccc2)c1NC(=O)c1cccs1` gave B2AR ag -1, UCH37 DUB inh 1.5, Ecoli growth 0.72, HNF4A DNA FP -0.1, ALR H2O2 inh 31 and LANA-H2A inh 4.4.
`CCn1c2ccc(/C(C)=N\O)cc2c2cc(/C(C)=N\O)ccc21` gave B2AR ag -3, HNF4A DNA FP 4.3 and LANA-H2A inh 0.1.
Screening Cc1cc(=O)[nH]c(Cc2ccc(OC(C)C)cc2)n1 returned B2AR ag -6, UCH37 DUB inh -2.2, Ecoli growth 0.68, HNF4A DNA FP -3.4, FGF22 binding inactive, ALR H2O2 inh -7 and LANA-H2A inh -3.3.
For COc1ccc(-c2ccc(OC(=O)NC3CCS(=O)(=O)C3)cc2)cc1 (centres undefined) the results were B2AR ag 3, UCH37 DUB inh 2.3, Ecoli growth 0.64, HNF4A DNA FP 0.1, FGF22 binding inactive, ALR H2O2 inh inconclusive and LANA-H2A inh -1.1.
Screening Cc1ccc(S(=O)(=O)/N=C(/NC(=S)Nc2ccccc2)c2ccccc2)cc1 returned B2AR ag -1, UCH37 DUB inh 5.5, Ecoli growth 0.73, HNF4A DNA FP -1.4, ALR H2O2 inh -2 and LANA-H2A inh -7.8.
For O=C(Nc1c2c(nn1-c1ccc(F)cc1)CS(=O)(=O)C2)C12CC3CC(CC(C3)C1)C2 the results were B2AR ag -9, UCH37 DUB inh 2.6, Ecoli growth 0.65, HNF4A DNA FP 1.1, ALR H2O2 inh 2 and LANA-H2A inh -0.2.
For O=c1c(Cl)nc2cc(Cl)ccc2n1CCNc1ncc(C(F)(F)F)cc1Cl the results were B2AR ag -15, UCH37 DUB inh -4.7, Ecoli growth 0.76, HNF4A DNA FP 1.4, ALR H2O2 inh 7 and LANA-H2A inh 0.6.
For CC(C)CN1C(=O)C(=O)N(CC(=O)Nc2cccc(Cl)c2Cl)C1=O the results were B2AR ag -6, UCH37 DUB inh 4.2, Ecoli growth 0.64, HNF4A DNA FP -3.4, FGF22 binding inactive, ALR H2O2 inh -1 and LANA-H2A inh -2.7.
Screening O=C(OCCn1cncn1)c1cc2ccccc2oc1=O returned B2AR ag -2, UCH37 DUB inh -8.7, Ecoli growth 0.7, HNF4A DNA FP 1.8, ALR H2O2 inh 1 and LANA-H2A inh 12.
CCOC(=O)c1cnc(-c2ccccc2)nc1Oc1ccc(Cl)c(Cl)c1 was read as B2AR ag 7, UCH37 DUB inh 4.6, Ecoli growth 0.82, HNF4A DNA FP 1.9, ALR H2O2 inh -1 and LANA-H2A inh -3.1.
`CCC1C(=O)C(CC)C(c2ccccc2)NC1c1ccccc1` (centres undefined) gave B2AR ag -5, UCH37 DUB inh 1.8, Ecoli growth 0.69, HNF4A DNA FP -2.8, FGF22 binding inactive, ALR H2O2 inh -2 and LANA-H2A inh -6.6.
Screening CCOC(=O)CC1=C(C(=O)OCC)C(c2cccnc2)C(C#N)=C(N)O1 (centres undefined) returned B2AR ag -3, UCH37 DUB inh -0.1, Ecoli growth 0.73, HNF4A DNA FP -1.2, ALR H2O2 inh 11 and LANA-H2A inh -1.5.
`COc1ccc2c(CC(=O)NCCN3C(=O)S/C(=C\c4cccnc4)C3=O)coc2c1` gave B2AR ag 0, UCH37 DUB inh 5.4, Ecoli growth 0.67, HNF4A DNA FP 11, FGF22 binding inactive, ALR H2O2 inh 6 and LANA-H2A inh -0.4.
For COc1ccc(N(CC(=O)N2CCN(Cc3ccccc3)CC2)S(C)(=O)=O)c(OC)c1 the results were B2AR ag -2, UCH37 DUB inh 3.5, Ecoli growth 0.64, HNF4A DNA FP -2.6, FGF22 binding inactive, ALR H2O2 inh -4 and LANA-H2A inh 3.1.
Screening O=C(CN1C(=O)COc2ccccc21)NCCCN1CCN(Cc2ccccc2)CC1 returned B2AR ag -9, UCH37 DUB inh 1.7, Ecoli growth 0.71, HNF4A DNA FP -1.9, ALR H2O2 inh -13 and LANA-H2A inh -2.2.
For O=C(CN1CCN(Cc2ccccc2Cl)C1=O)NCCCN1CCOCC1 the results were B2AR ag 8, UCH37 DUB inh 2.6, Ecoli growth 0.64, HNF4A DNA FP 3.2, FGF22 binding inactive and LANA-H2A inh 1.1.
`COc1nc(OCCNC(=O)Nc2ccccc2)nc(N(C)C)n1` gave B2AR ag -3, UCH37 DUB inh 0.7, Ecoli growth 0.7, HNF4A DNA FP 1.0, ALR H2O2 inh -4 and LANA-H2A inh -4.2.

2 compounds drawn at random from the list so far, as already listed:
Screening O=C(CN1C(=O)COc2ccccc21)NCCCN1CCN(Cc2ccccc2)CC1 returned B2AR ag -9, UCH37 DUB inh 1.7, Ecoli growth 0.71, HNF4A DNA FP -1.9, ALR H2O2 inh -13 and LANA-H2A inh -2.2.
For O=C(CN1CCN(Cc2ccccc2Cl)C1=O)NCCCN1CCOCC1 the results were B2AR ag 8, UCH37 DUB inh 2.6, Ecoli growth 0.64, HNF4A DNA FP 3.2, FGF22 binding inactive and LANA-H2A inh 1.1.

(continued)
CCN(Cc1ccccc1)C(=O)CCc1nc(CN2CCN(C(=O)c3ccc([N+](=O)[O-])cc3)CC2)no1 was read as B2AR ag -5, UCH37 DUB inh 4.9, Ecoli growth 0.69, HNF4A DNA FP -4.5, FGF22 binding inactive, ALR H2O2 inh -2 and LANA-H2A inh -3.1.
COc1ccc(NC(=O)C2CCCO2)cc1 (centres undefined) was read as B2AR ag 1, UCH37 DUB inh 2.0, Ecoli growth 0.71, HNF4A DNA FP 0.1, ALR H2O2 inh -23 and LANA-H2A inh 0.0.
Screening CC(O)[C@@H](NC(=O)C1CCC(CNC(=O)[C@H](Cc2ccccc2)NC(=O)OC(C)(C)C)CC1)C(=O)O (some centres undefined) returned B2AR ag 5, UCH37 DUB inh 3.5, Ecoli growth 0.67, HNF4A DNA FP 1.7, FGF22 binding inactive and LANA-H2A inh 2.7.
For CCCCn1c(N)c(N(CCOC)C(=O)CSc2nnc(-c3ccco3)n2CC)c(=O)[nH]c1=O the results were B2AR ag -9, UCH37 DUB inh -0.7, Ecoli growth 0.7, HNF4A DNA FP 0.0, FGF22 binding inactive, ALR H2O2 inh -2 and LANA-H2A inh 1.4.
For COc1ccc(CN(C(=O)Cc2cccs2)C(C(=O)NC2CCCC2)c2ccncc2)cc1 (centres undefined) the results were B2AR ag 0, UCH37 DUB inh 0.4, Ecoli growth 0.7, HNF4A DNA FP -1.4 and LANA-H2A inh 6.3.
